# Compound activity deposited in PubChem BioAssay by National Center for Advancing Translational Sciences (NCATS).
# NPR1 antag: antagonists of human natriuretic peptide receptor Npr1; P16066; HEK293 hNpr1 GloSensor cGMP, ANP-stimulated luminescence; Potency, µM (series often up to 46.3 µM), for the others: at the top dose activity change, negative = inhibition, actives largely listed as inhibitors; hit rate 1.6% among 76,000; active = well fitted inhibition curve with a large enough effect; inconclusive = small, poorly fitted or top-dose-only effect; inactive = no such curve, though single readings can be large or run the other way;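 note: nearly all actives have a fitted effect of over 60% in size; nearly all hits also lower the signal before the agonist is added; a reference antagonist and vehicle were the controls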
# Target sequence (P16066 whole entry, looked up): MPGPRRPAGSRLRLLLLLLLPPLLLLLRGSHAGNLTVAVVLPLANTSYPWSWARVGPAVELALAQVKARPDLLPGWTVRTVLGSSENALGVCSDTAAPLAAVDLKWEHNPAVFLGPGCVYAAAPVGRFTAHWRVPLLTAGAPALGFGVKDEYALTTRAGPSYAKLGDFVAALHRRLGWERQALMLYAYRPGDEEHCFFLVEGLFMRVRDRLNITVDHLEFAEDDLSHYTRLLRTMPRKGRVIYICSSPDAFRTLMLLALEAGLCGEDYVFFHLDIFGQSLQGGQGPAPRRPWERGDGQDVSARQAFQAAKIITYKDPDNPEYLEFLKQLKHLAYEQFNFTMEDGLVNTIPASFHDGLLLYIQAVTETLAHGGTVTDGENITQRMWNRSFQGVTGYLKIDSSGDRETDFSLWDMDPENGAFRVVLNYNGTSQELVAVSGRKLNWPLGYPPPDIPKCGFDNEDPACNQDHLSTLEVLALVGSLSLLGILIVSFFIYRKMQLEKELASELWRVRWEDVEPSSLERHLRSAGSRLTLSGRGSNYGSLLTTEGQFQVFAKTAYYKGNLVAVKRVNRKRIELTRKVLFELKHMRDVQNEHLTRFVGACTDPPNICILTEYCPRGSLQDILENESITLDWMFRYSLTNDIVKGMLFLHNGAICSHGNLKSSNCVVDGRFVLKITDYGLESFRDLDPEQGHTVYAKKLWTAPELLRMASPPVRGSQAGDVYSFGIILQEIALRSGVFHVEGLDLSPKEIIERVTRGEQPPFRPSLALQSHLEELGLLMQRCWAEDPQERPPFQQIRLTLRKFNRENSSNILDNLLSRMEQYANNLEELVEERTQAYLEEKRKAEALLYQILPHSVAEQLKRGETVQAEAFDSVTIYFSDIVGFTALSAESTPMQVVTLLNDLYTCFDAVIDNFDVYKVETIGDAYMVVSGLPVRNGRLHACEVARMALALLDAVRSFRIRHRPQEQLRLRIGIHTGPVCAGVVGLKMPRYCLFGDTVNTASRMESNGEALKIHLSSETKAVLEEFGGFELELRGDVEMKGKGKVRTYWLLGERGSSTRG
#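 HEK293 cells stably expressing human Npr1 and cGMP GloSensor pGS-40F, loaded 2 h with 2% GloSensor reagent, given compound 30 min at room temperature. Luminescence read before and 20 min after 0.1 nM hNppA.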
# Active calls of the source: *; ? = inconclusive; [ ] = dose if it differs, or a comment. % is set by controls: 0 for no effect and ±100 for the full control effect; potency is the fitted concentration of half-maximal effect. A portion of the library. The share of hits here may be higher or lower than overall.
NPR1 antag	molecule
-3%	Cc1cnc(C(=O)N2CCC3(CCCN(Cc4cccc(F)c4F)C3=O)C2)[nH]1 (configuration not stated)
7%	CN(C)C[C@@H]1CN(C2CCOCC2)C[C@H]1NC(=O)Cc1ccc(F)cc1
-5%	COc1ccc(C(=O)N2CCC(c3n[nH]c(=O)n3Cc3ccc(F)cc3)CC2)c(OC)n1
4%	COC[C@@H]1CN(C(=O)Cn2cccn2)C[C@H]1c1ccncc1
-1%	CCCCN(CC)C(=O)CN1C(=O)NC(c2ccccc2)C2=C1COC2=O (configuration not stated)
-4%	COCC(=O)N1CCN(C(=O)c2cccnc2)C[C@@H]1C(=O)N[C@@H](Cc1ccc(OC)cc1)C(=O)OC
3%	CCC(CC)C(=O)NC[C@H]1O[C@@H](CC(=O)N2CCN(c3ccccc3OC)CC2)[C@H](O)[C@@H]1O
-3%	Fc1ccccc1-c1noc(-c2nc(-c3cnccn3)no2)n1
4%	O=C1CCN(S(=O)(=O)c2cccs2)CCCC(CO)CCN1 (configuration not stated)
-3%	O=C(c1cccc(F)c1)N1CCOc2ccc(CN3CCc4ccccc4C3)cc2C1
-10%	CC(C)c1ccc(-c2nc(C3CC(=O)N(c4ccc(Cl)cc4)C3)no2)cc1 (configuration not stated)
1%	O=C(c1ccncc1)N1CCc2nc3cc(-c4ccccc4Cl)[nH]n3c(=O)c2C1
-2%	CSCC[C@@H]1NC(=O)c2cc(NC(=O)CCc3ccc4c(c3)CCO4)ccc2NC1=O
2%	COCCNC(=O)C1CCCN(Cc2ccncc2)CCC(=O)NCC1 (configuration not stated)
-2%	COc1ccc(NC(=O)Cn2c(=O)n(-c3cccc(C)c3)c(=O)c3c2cc(C)n3C)cc1OC
7%	COc1ccc(S(=O)(=O)NCC2CCCN(C(=O)c3ncoc3C)C2)cc1 (configuration not stated)
-1%	Cc1cc(C(=O)N2C[C@@H](CO)[C@H](c3ccncc3)C2)on1
2%	CC(=O)Nc1cccc(-c2cc3c(ccn3CC3CCN(C)CC3)c(N3CCOCC3)n2)c1
5%	CCOC(=O)C1(Cc2cccc(OC)c2)CCCN(C(=O)CCN2CCCCO2)C1 (configuration not stated)
0%[70.6 µM]	O=C(NCc1cccs1)C1CCCN(c2nc3ncccc3o2)C1 (configuration not stated)
11%	COC(=O)c1ccc(N2CCN(C(=O)Cn3nnnc3CN(C)C(C)C)CC2)cc1
5%	CC(=O)N1CCC(N2CC[C@H](CO)[C@H](N(C)C)C2)CC1
-14%[70.6 µM]	Cc1oc(C(O)c2ccccc2)nc1C(=O)N1CCC(n2c(=O)[nH]c3ccccc32)CC1 (configuration not stated)
-7%	CC(=O)N1C[C@@H]2CCCN3CCC[C@@H]([C@H]23)[C@H]1CCCC(=O)NCCCN1CCCc2ccccc21
-1%[70.6 µM]	COC1CCN(C(=O)c2ccnc(-c3nnc4ccc(Nc5ccccc5)nn34)c2)CC1
0%	COCCOCC(=O)N1CCC(c2noc(C3CC3)n2)C1 (configuration not stated)
-1%[70.6 µM]	Cc1ccc2nc(CO[C@H]3CN(C4CCN(C)CC4)C[C@H]3F)[nH]c2c1
-2%	COc1c(C)cc(NC(=O)c2ccc(CN3CCC(O)CC3)cc2)cc1C
1%[70.6 µM]	O=C(NC[C@H]1COCc2nc3cc(C(F)(F)F)ccc3n21)c1cccnc1
0%	CC(Oc1ccccc1)C(=O)N1CCC(c2nn(C)c3c2COCC3)CC1 (configuration not stated)
-11%	O=C(Cc1ccc(F)cc1)N1CCn2c(nn(-c3ccc(F)cc3)c2=O)C1
2%	CCOc1ccc(CN2CCN(CC(N)=O)CC2CCO)cc1 (configuration not stated)
-11%	CC1CCN(S(=O)(=O)N2CCC(C(=O)N3CCc4nc5cc[nH]n5c(=O)c4C3)CC2)CC1
3%[70.6 µM]	O=C(O)CCn1ncc2cc(OCc3ccc(-c4cncnc4)cc3)ccc21
3%	CN1CCC(Cc2noc(C3CC(=O)N(Cc4cccnc4)C3)n2)CC1 (configuration not stated)
-11%	CCNC(=O)N1CC[C@H]2C(=O)NCCCCCCN(Cc3ccncc3)[C@@H]2C1
?	Cc1noc(-c2ccc(OC3CN(C(=O)C(C)Oc4ccccc4)C3)cc2)n1 (configuration not stated)
3%	COCc1ccc(C(=O)N2CCN(Cc3ccccc3)CC(O)C2)s1 (configuration not stated)
-20%	COC(=O)[C@@H]1Cc2c([nH]c3ccccc23)[C@H]2C[C@@H](NCCN3CCOCC3)C[C@@H](c3ccccc3F)N21
-1%	COCC1(c2nc(C3CCOCC3)nn2-c2ccccc2)CCC1
13µM*	O=C1CCC2(CCN(c3nc4ccccc4s3)CC2)CN1Cc1cccnc1
4%	O=C([C@@H]1C[C@H](Oc2ccccc2)CN1S(=O)(=O)c1cccnc1)N1CCCC1
3%	COCC(=O)N[C@H]1C[C@@H](CO)N(Cc2ccccn2)C1
-12%	CC(C)CCN(CCC(=O)NCCc1ccccc1)C(=O)c1ccoc1
-2%	COc1ccccc1S(=O)(=O)Nc1c(C)nn(CC(=O)O)c1C
0%[70.6 µM]	COc1cccc(C(=O)N2CCCCC23Cc2ccccc2NC3=O)c1 (configuration not stated)
-5%	CC1(c2ccccc2)N(Cc2ccccc2C#N)C(=O)OC12CCN(CCc1ccccc1)CC2 (configuration not stated)
-7%	c1cc(-c2ccnc3nc(C4CCCCC4)nn23)ccn1
-1%	O=C(Cn1nc2n(c1=O)CCCCC2)Nc1ccccc1
4%	Cc1ccc(-c2cn3c(n2)N(C(=O)c2sc(C)nc2C)CCC3)cc1
1%	CC(C)N1CCN(C(=O)CCC[C@@H]2[C@H]3CCCN4CCC[C@@H](CN2Cc2ccccc2)[C@@H]34)CC1
-6%	CNC(=O)[C@@H]1CN(C(=O)c2cnc(C)cn2)C[C@H]1c1n[nH]c(C)n1
-3%	CN(Cc1ccc(-n2cccn2)cc1)C(=O)c1ccccc1C1CCNC1 (configuration not stated)
-4%	CC(=O)N1CC2(CCN(Cc3nnc(-c4ccco4)o3)CC2)CC1C(=O)O (configuration not stated)
0%	CNc1nccc(N2CCC(CC(=O)NCCCOC(C)C)CC2)n1
7%[70.6 µM]	Cc1noc(C)c1-c1cc2cc(CN(C)C)oc2c(NCc2cccnc2)n1
3%	CN1CCN(c2nc3c(c(=O)[nH]2)CCN(Cc2cccn2C)CC3)CC1
-8%[70.6 µM]	O=C(Nc1ccccc1)N[C@H]1C[C@H]2C(=O)NC[C@@H](CCC(=O)N3CCCCC3)N2C1
?	O=C(Nc1ccc(Cl)cc1)N1Cc2[nH]cnc2C[C@H]1c1nc(-c2ccc(F)c(Cl)c2)no1
-13%	CCN1c2cc(C(=O)Nc3ccc(OC)cc3)ccc2C(=O)N2CCCC21 (configuration not stated)

# The listing continues:
NPR1 antag	molecule
4%	Cc1cc(C(F)(F)F)nn1CC(=O)NCC(=O)N1CCCCCCNC(=O)CC1c1ccccc1 (configuration not stated)
1%	Cc1ccnc(N2CC[C@@H]3[C@@H](CCC(=O)N3CCc3ccccn3)C2)n1
2%	CCC(C)(C)C(=O)N1C[C@@H](CO)[C@H](c2nc(-c3ccncc3)no2)C1
5%	O=C(C1CCCC1)N1CCN(c2nnc3c(Cl)cccn23)CC1
-1%[70.6 µM]	Cc1nnc(-c2cc(-c3ccccc3)ccn2)n1CCc1ccccc1
2%	Cn1c(CCC(=O)N2CCOCC2)nc2cc(S(=O)(=O)N3CCCC3)ccc21
?	O=C(c1ccc(C(F)(F)F)cc1)N1CCn2c(nn(-c3ccncc3)c2=O)C1
4%[70.6 µM]	O=C(Nc1ccccc1)c1cnc2n1CCN(Cc1ccc3c(c1)CCO3)CC2
21%	Cc1noc(C)c1CC(=O)N1CCCC(Cc2noc(-c3cccnc3)n2)C1 (configuration not stated)
?	COc1ccc(CCNC(=O)c2cc3n(n2)CC(c2ccc4c(c2)OCO4)OC3)cc1OC (configuration not stated)
1%	Cc1ncoc1C(=O)NCc1cccnc1N(C)Cc1ccccc1
-4%	COc1cc2c(cc1OC)C(CNC(=O)c1cccc(Cl)c1)N(C(=O)Nc1ccccc1)CC2 (configuration not stated)
-4%[70.6 µM]	COc1cccc(C(O)c2nc(C(=O)Nc3ccc4c(c3)NC(=O)CO4)c(C)o2)c1 (configuration not stated)
2%	Cc1ccsc1C(=O)N1CCC(Oc2ncccc2C(=O)N2CCCCC2)C1 (configuration not stated)
-5%	Cc1nonc1OCCNC(=O)c1ccc2nc(Cc3ccccc3F)oc2c1
6%	OC1(c2csc(CN3CCN(c4ccccn4)CC3)n2)CCN(CC2CCCCC2)CC1
4%	Cc1cccc(Cn2nc3n(c2=O)CCCCC3)c1
1%	COCCCNC(=O)CCC[C@@H]1[C@H]2CCCN3CCC[C@@H](CN1C(=O)c1ccccc1)[C@@H]23
4%	CCOC(=O)C1(Cc2cccc(Cl)c2)CCCN(Cc2cnn(C)c2)C1 (configuration not stated)
5%	O=C(O)C1CCCN(c2cn[nH]c(=O)c2)C1 (configuration not stated)

# The final four entries of the part before lead into the next.
NPR1 antag	molecule
4%	Cc1cccc(Cn2nc3n(c2=O)CCCCC3)c1
1%	COCCCNC(=O)CCC[C@@H]1[C@H]2CCCN3CCC[C@@H](CN1C(=O)c1ccccc1)[C@@H]23
4%	CCOC(=O)C1(Cc2cccc(Cl)c2)CCCN(Cc2cnn(C)c2)C1 (configuration not stated)
5%	O=C(O)C1CCCN(c2cn[nH]c(=O)c2)C1 (configuration not stated)
2%	OC[C@@H]1CN(Cc2ccoc2)C[C@H]1c1nc(-c2ccncc2)no1
-1%	COc1ccccc1Oc1ncccc1CNC1CCCC1
-3%[70.6 µM]	Cn1cccc1CN1CCC(N2CCC[S+]2(=O)[O-])CC1
-4%	COCCNC(=O)[C@H]1C[C@H](Oc2ccccc2)CN1Cc1ccc(C)o1
1%[70.6 µM]	O=C(c1ccc(Cl)cc1)N1CCOCC2(C1)CN([S+](=O)([O-])c1ccccc1)C2
1%	CCOC(=O)C1CCN(C(=O)c2cc(-c3ccncc3)cn2Cc2ccccc2C)CC1
2%	Cc1cc2nc3n(c(=O)c2n1CC(=O)NCc1ccc(Cl)cc1)CCCC3
4%[70.6 µM]	CN(C)Cc1ccc(-c2cc3c(ccn3C)c(C(=O)NCc3cccnc3)n2)cc1
1%	O=S(=O)(c1cc(F)ccc1F)N1CCC(n2cc(CCCO)nn2)CC1
4%	CN(Cc1csc(-c2ccccc2)n1)C(=O)CN1CCOC1=O
-1%	CCn1nccc1C(=O)N1CCCCCCNC(=O)[C@@H]2CCC[C@@H]21
-1%	O=C(c1ccc(OC2CCN(C(=O)c3ccc(F)cc3)CC2)nc1)N1CCOCC1
-6%	CC(C)CCC(=O)NC1CCN(c2cnn(CC3CC3)c(=O)c2)CC1
1%	CCC(C)C(=O)N1CCC2(CC1)NCCc1c2[nH]c2ccccc12 (configuration not stated)
-3%	CCc1ccccc1-n1nc(-c2c(C)nc3scc(CC(=O)NCc4ccco4)n3c2=O)cc1C
-3%	COc1ccccc1CC(=O)N1CCCN(c2cc(-c3ccccc3)[nH]n2)CC1
0%	O=C(c1ccc(F)cc1F)N1CCCN(C(=O)C2CC2)c2ccccc21
3%	CCOCCc1nc(C2CCOC2)nn1C1CCCCC1 (configuration not stated)
4%[70.6 µM]	Cc1ccc(N2C(=O)N[C@@H]3CCN(C(=O)c4ccc(C(C)(C)C)cc4)[C@@H]3C2=O)cc1
-15%[70.6 µM]	CN1CCC2(C1)CN(CC1CCOCC1)c1ccc(C(=O)Nc3ccccc3)cc12 (configuration not stated)

# Five entries out of the list above, arranged by the number in NPR1 antag, largest number first:
NPR1 antag	molecule
4%	CN(Cc1csc(-c2ccccc2)n1)C(=O)CN1CCOC1=O
3%	CCOCCc1nc(C2CCOC2)nn1C1CCCCC1 (configuration not stated)
1%	O=S(=O)(c1cc(F)ccc1F)N1CCC(n2cc(CCCO)nn2)CC1
-1%	CCn1nccc1C(=O)N1CCCCCCNC(=O)[C@@H]2CCC[C@@H]21
-3%	COc1ccccc1CC(=O)N1CCCN(c2cc(-c3ccccc3)[nH]n2)CC1

# Copied from above for reference:
NPR1 antag	molecule
-3%	COc1ccccc1CC(=O)N1CCCN(c2cc(-c3ccccc3)[nH]n2)CC1
0%	O=C(c1ccc(F)cc1F)N1CCCN(C(=O)C2CC2)c2ccccc21

# Following part
NPR1 antag	molecule
-24%	O=C(NC1CCCC1)c1cccc2c1CCN2S(=O)(=O)c1ccccc1
-1%	CCCCNC(=O)C1CCN(C(=O)c2ncn3c2COC(c2ccc(OC)cc2)C3)CC1 (configuration not stated)
0%[70.6 µM]	CC(C)NC[C@H]1O[C@@H]2C[C@@H](CC(=O)NCc3nccn3C)O[C@@H]2[C@@H]1O
5%	CCC(CC)NC(=O)C1CCN(C(=O)c2ncn3c2COC(c2ccc(F)cc2)C3)CC1 (configuration not stated)
-1%	O=C(c1ccccc1OCC1CCCN(Cc2nccs2)C1)N1CCCCC1 (configuration not stated)
2%[70.6 µM]	COc1ccc(CN2C(=O)CO[C@H]3CN(c4ccc(C#N)cn4)C[C@H]32)cc1
?	COc1ccc(-c2noc([C@@H]3Cc4nc[nH]c4CN3C(=O)Nc3ccc(C)cc3)n2)cc1
-2%[70.6 µM]	CN(C)c1ncc2c(n1)C(C)(C(=O)NCCCn1ccnc1)CCC2 (configuration not stated)
5%[70.6 µM]	COCc1cc(C[C@@H]2CC[C@H](O)[C@@H](CNC(=O)COc3ccccc3)O2)no1
-8%	Cc1cccc(C(=O)N2CCCCCCNC(=O)CC2)c1
-1%	CCOc1ccccc1CN1CCN(C(=O)c2ccccn2)CC1CCO (configuration not stated)
9%	CCNC(=O)N1C[C@@H](Oc2cccnc2)C[C@@H]1C(=O)NCCOC
